Screens as filed in PubChem BioAssay.
KCNQ2 inh – KCNQ2 channel blockers in CHO-K1 cells – cell-based, FluxOR thallium flux, B-score, primary screen (AID 2156); 20 min; active compounds read low; only compounds with negative scores are shown here; some inactives read as strong as hits; O88943; B-score at 10 µM; actives 1.1% (n = 310,000);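 active = fluorescence ratio B-score at most minus 3 library SDs, with starting brightness B-score within 2 library SDs, cut at about -5.5 in these data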
Target sequence (O88943 whole entry, looked up): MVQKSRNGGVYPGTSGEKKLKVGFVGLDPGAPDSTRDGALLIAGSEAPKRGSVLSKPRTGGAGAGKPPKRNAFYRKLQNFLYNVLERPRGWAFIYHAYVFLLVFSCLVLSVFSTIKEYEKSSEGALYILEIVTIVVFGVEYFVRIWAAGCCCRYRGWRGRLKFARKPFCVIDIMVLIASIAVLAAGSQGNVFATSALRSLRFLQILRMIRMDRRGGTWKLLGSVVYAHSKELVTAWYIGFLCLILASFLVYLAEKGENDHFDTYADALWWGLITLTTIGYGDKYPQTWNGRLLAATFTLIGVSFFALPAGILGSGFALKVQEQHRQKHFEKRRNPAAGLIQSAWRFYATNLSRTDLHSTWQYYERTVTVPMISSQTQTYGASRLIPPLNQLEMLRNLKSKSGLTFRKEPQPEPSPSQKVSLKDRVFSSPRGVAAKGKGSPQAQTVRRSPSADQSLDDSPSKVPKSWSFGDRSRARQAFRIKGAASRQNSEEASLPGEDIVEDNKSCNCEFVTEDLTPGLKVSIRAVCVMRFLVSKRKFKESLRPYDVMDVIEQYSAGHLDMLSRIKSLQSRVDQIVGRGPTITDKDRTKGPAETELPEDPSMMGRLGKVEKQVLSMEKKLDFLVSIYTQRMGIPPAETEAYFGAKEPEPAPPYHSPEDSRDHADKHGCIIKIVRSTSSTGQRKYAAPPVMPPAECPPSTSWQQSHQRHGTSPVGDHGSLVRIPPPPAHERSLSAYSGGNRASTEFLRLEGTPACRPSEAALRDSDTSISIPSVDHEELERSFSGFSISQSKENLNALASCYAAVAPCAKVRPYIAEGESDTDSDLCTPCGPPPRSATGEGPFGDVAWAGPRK
KCNQ2 inh baseline – recorded beside KCNQ2 inh, whose call it bears; B-score; measured here: initial fluorescence intensity artifact check;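 brightness before thallium and not channel activity; 0 = typical well and far values either way flag optical interference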
* hit, by the source's call; i = inactive. The list is partial (hit frequency here may not be typical).

| KCNQ2 inh baseline | KCNQ2 inh | structure |
| --- | --- | --- |
| 1.1 | i | O=C(/C=C/c1ccco1)N1CCN(S(=O)(=O)c2cccs2)CC1 |
| 1.6 | i | Cc1cc2nc(-c3ccc(SCC(=O)Nc4ccc(S(=O)(=O)N5CCCC5)cc4)nc3)[nH]c2cc1C |
| -1.4 | i | CSc1ccc(CCNC(=O)c2cccc3c2C(=O)N(C2CCCCC2)C3)cc1 |
| -0.21 | i | COc1ccc(O)c(/C=N/Nc2nc(Nc3ccccc3)nc(-n3nc(C)cc3C)n2)c1 |
| 0.83 | i | O=C(CNC(=O)c1cccs1)OCC(=O)c1ccc(Br)cc1 |
| -0.02 | i | Cc1ccc(C(=O)N/C(=C/c2ccc(-c3cc(C(F)(F)F)ccc3Cl)o2)C(=O)NCc2cccnc2)cc1 |
| 0.72 | i | CC1=NN(c2ccccc2)C(=O)/C1=C/c1ccc(Cl)cc1 |
| -0.12 | i | Cc1cccn2c(=O)nc(SCC(=O)c3ccc(Cl)cc3)nc12 |
| -1.5 | i | O=C(c1ccc2c(=O)n3c(nc2c1)CCCCC3)N1CCN(c2ccccc2F)CC1 |
| -2.4 | i | COc1ccc(C)cc1NC(=O)N1CCCc2ccccc21 |
| -0.57 | i | COc1ccc(/C=C2\SC(=S)N(CCC(=O)NC3CCCC3)C2=O)cc1OC |
| -2 | i | CC(C)(C)c1ccc(/C=C(\C#N)C(=O)Nc2ccccn2)cc1 |
| 0.89 | i | CC1(C)CC(=O)N(c2cc(Cl)cc(Cl)c2)C(=O)C1 |
| 0.14 | i | COc1cc(/C=C/C(=O)c2ccc([N+](=O)[O-])o2)ccc1O |
| 1.5 | i | COc1ccc(/C=C/c2nnc(NC(=O)CSc3ccc(C)cc3)s2)cc1 |
| -0.68 | i | CC(CCc1ccccc1)NC(=O)c1ccc2nc(N3CCOCC3)sc2c1 (stereo not drawn) |
| -1.7 | i | Cc1ccc([C@@H]2[C@@H]3C(=O)N(C)C(=O)[C@@H]3[C@]3(C)C(=O)N(CCO)CC(=O)N23)o1 |
| 0.44 | i | O=C(CSc1nn(-c2ccccc2)c(=S)s1)Nc1ncccn1 |
| -1.2 | i | O=C(CCN1C(=O)C2C3C=CC(C3)C2C1=O)N1CCCCC1 (stereo not drawn) |
| 1.4 | i | COc1ccccc1OCCNC(=O)C(=O)c1c[nH]c2ccccc12 |
| -3.9 | i | COC(=O)CSc1nc2ccc(NC(C)=O)cc2s1 |
| 0.34 | i | CCOc1ccc(C(=O)N[C@H](C(=O)Nc2ccc(OC)c(S(=O)(=O)N3CCOCC3)c2)C(C)C)cc1 |
| -0.77 | i | Cc1ccc(OCc2cc(C(=O)NC(C)Cc3cnccn3)no2)cc1C (stereo not drawn) |
| 0.76 | i | COc1ccc(N(C(=O)c2ccccc2OC(C)=O)C(C)C2CC2)cc1 (stereo not drawn) |
| -0.3 | i | CCN(CC)S(=O)(=O)c1cccc(NC(=O)c2ccc(SC)cc2OC)c1 |
| -0.31 | i | COc1cc(N2CCCC2)ccc1C=O |
| 0.74 | i | CC(=O)N1CCN(C(=O)c2cc(C)nc3ccccc23)CC1 |
| -0.09 | i | COc1ccc(/C=C/C(=O)O)cc1S(=O)(=O)N1CCCc2ccccc21 |
| -2.5 | i | Cc1ccc(S(=O)(=O)N2CCC(C(=O)NCCc3ccccc3)CC2)cc1 |
| -0.81 | i | CC(=O)Nc1nonc1NC(=O)CSc1ncn[nH]1 |
| 0.68 | i | CC(Oc1ccccc1Cl)C(=O)Nc1ccc(S(=O)(=O)Nc2nccs2)cc1 (stereo not drawn) |
| 0.95 | i | COc1ccc(-c2cc(C(=O)NC(Cc3cc4ccccc4[nH]3)C(=O)O)c(C)o2)cc1OC (stereo not drawn) |
| 0.39 | i | Cc1sc2nc(CSc3nnnn3-c3ccc(Cl)cc3)[nH]c(=O)c2c1C |
| 0.05 | i | O=C(COc1ccccc1C(=O)c1cnn(-c2ccccc2)c1)Nc1ccc2ccccc2c1 |
| 0.44 | i | Cc1ccc(C2NC(=S)NC3=C2C(=O)CCC3)cc1 (stereo not drawn) |
| 0.34 | i | O=C(CCCCO)CCCCCCCC[C@H]1N[C@H](CO)[C@H](O)[C@@H]1O[C@@H]1O[C@H](CO)[C@@H](O)[C@H](O)[C@H]1O |
| -0.9 | i | COc1ccc(C2/C(=C(\O)c3ccc4c(c3)OCCO4)C(=O)C(=O)N2CCCN(C)C)c(OC)c1 (stereo not drawn) |
| -0.46 | i | CCc1ccccc1N1CC(C(=O)Nc2nccs2)CC1=O (stereo not drawn) |
| -1.5 | i | CCCC(=O)Nc1ccc(NC(=O)c2ccccc2Cl)nc1 |
| 1 | i | Cc1c(N2C(=O)/C(=C\C3CC=CCC3)SC2=S)c(=O)n(-c2ccccc2)n1C (stereo not drawn) |
| 0.49 | i | Cc1cc(OC(C)C(=O)Nc2ccccc2C(=O)N2CCCC2)ccc1Cl (stereo not drawn) |
| -0.7 | i | CCOC(=O)C(=O)NNc1ccc(Cl)cc1 |
| -0.04 | i | COc1cccc(NC(=O)[C@H](CC(C)C)NC(=O)N2CCn3c2nc2ccccc23)c1 |
| -2 | i | COc1ccccc1C(=O)n1nc(-c2ccc(Cl)cc2)nc1N |
| -0.41 | i | O=C(CN1C(=O)/C(=C\c2ccccc2Cl)Sc2ccccc21)NCCCN1CCOCC1 |
| 1.1 | i | O=C(NCc1ccccn1)C1CCN(S(=O)(=O)c2cccs2)CC1 |
| 2.1 | i | CCN(c1cccc(C)c1)S(=O)(=O)c1cc2c3c(c1)CCC(=O)N3CCC2 |
| 0.01 | i | COc1ccc(CC(=O)OC(C)CN2CCOCC2)cc1 (stereo not drawn) |
| 1.1 | i | COc1ccccc1N1CC(C(=O)Nc2nnc(SC)s2)CC1=O (stereo not drawn) |
| 1.9 | i | COc1ccc(C2/C(=C(/O)c3ccccc3)C(=O)C(=O)N2c2ccccn2)c(OC)c1 (stereo not drawn) |
| 1.8 | i | CC(NC(=O)COC(=O)c1ccccc1Nc1ccccc1)c1ccccc1 (stereo not drawn) |
| -0.37 | i | CC(=O)n1cc([C@@H]2C=C(C(=O)NCc3ccccc3)O[C@H](OCc3ccc(CO)cc3)C2)c2ccccc21 |
| 0.59 | i | CC(On1c(-c2ccccc2)nc2ccc(Cl)cc21)C(=O)O (stereo not drawn) |
| 0.05 | i | N#CC1(c2ccccc2)CCCN1C(=O)c1ccccc1Cl (stereo not drawn) |
| -1.1 | i | Cc1cccc(OCCCC(=O)N2CCCCCC2)c1C |
| -0.47 | i | COc1ccc(Cc2nnc(SCC(=O)Nc3ccccc3C)n(N)c2=O)cc1 |
| 0.15 | i | O=C(O)C(c1ccccc1)N1CCCCC1 (stereo not drawn) |
| -0.68 | i | CC(=O)N1CCc2cc(Br)cc(S(=O)(=O)NCc3ccc(Cl)cc3)c21 |
| -0.57 | i | COc1cccc(O)c1CN1CCC(Oc2ccc(C(=O)NCc3ccccn3)cc2)CC1 |
| 0.39 | i | CCc1c(C)nc2ncnn2c1N1CCN(S(=O)(=O)c2ccc(OC)cc2)CC1 |

Next entries.
| KCNQ2 inh baseline | KCNQ2 inh | structure |
| --- | --- | --- |
| -0.63 | i | CSc1ccccc1NC(=O)c1ccc(N2CC3CC(C2)c2cccc(=O)n2C3)c(NC(=O)c2cccnc2)c1 (stereo not drawn) |
| 0.59 | i | COc1cc(Cl)cc(CN2CCC(CCC(=O)NC3CC3)CC2)c1OC |
| 2.5 | i | COc1cc2c(cc1OC)C(Nc1ccc(S(N)(=O)=O)cc1)=NC(C)(C)C2 |
| 1.5 | i | O=C(O)C1CCC(N2C(=O)c3c(Cl)c(Cl)c(Cl)c(Cl)c3C2=O)CC1 (stereo not drawn) |
| 0.09 | i | CCOC(=O)C1CCCN(C(=O)c2cccc(S(=O)(=O)N(C)c3c(C)n(C)n(-c4ccccc4)c3=O)c2)C1 (stereo not drawn) |
| -0.43 | i | CCOc1cccc(NC(=O)/C(C#N)=C\c2cccnc2)c1 |
| 1.1 | i | Cc1c(C)n(CCc2ccccc2)c2ncnc(NN)c12 |
| -0.07 | i | Cc1cc(OC(C)C(=O)NCC2CCC(C(=O)O)CC2)c2c(C)c(C)c(=O)oc2c1 (stereo not drawn) |
| -0.06 | i | Cc1ccccc1CS(=O)(=O)CCC(=O)NCc1ccc(F)cc1Cl |
| -0.57 | i | Cc1cccc(CSc2ncnc3c2cnn3Cc2ccccc2)c1 |
| -0.36 | i | CN(C)C(=O)c1ccc(NC(=O)COC(=O)/C=C/c2cccs2)cc1 |
| -0.19 | i | O=[N+]([O-])c1cccc2ccc(/C=C/c3ccc(C(F)(F)F)cc3)nc12 |
| -0.29 | i | CC1CCCN(C(=O)Nc2ccc(Br)cc2Cl)C1 (stereo not drawn) |
| 0.62 | i | CCCOc1ccccc1N/C(=N\S(=O)(=O)c1ccc(C)cc1)Nc1nc(C)cc(C)n1 |
| -0.12 | i | Cn1c(=O)c2ccccc2n(CC(=O)Nc2ccc3c(c2)OCCO3)c1=O |
| -0.73 | i | O=C(Nc1ccc(Br)cc1)c1ccc(N2C(=O)C3CC=C(Cl)CC3C2=O)cc1 (stereo not drawn) |
| -0.19 | i | Fc1ccc(NC(=S)N2CCOCC2)c(F)c1 |
| 0.37 | i | COc1ccccc1NC(=O)N1CCN(S(C)(=O)=O)CC1 |
| 1.3 | i | COC(=O)[C@H](Cc1ccccc1)NC(=O)C1(OC(C)=O)CC(OC(C)=O)C(OC(C)=O)C(OC(C)=O)C1 (stereo partly drawn) |
| 0.32 | i | O=C(c1cc2nc(C3CC3)cc(C(F)F)n2n1)N1CCOCC1 |
| 1.1 | i | COC(=O)CC1=C(C(=O)OC)C(c2cccs2)C(C#N)=C(N)O1 (stereo not drawn) |
| 0.64 | i | Cc1cccc(N2C(=O)NC3(CCCCC3)C2=O)c1 |
| -0.21 | i | O=C(Nc1cccnc1Cl)c1cc(-c2cccc(Cl)c2)on1 |
| 0.05 | i | COc1ccccc1Cc1nc(-c2ccc(Br)o2)no1 |
| -1.5 | i | COc1ccc(C(=O)Nc2c(N)nc(SCC(=O)c3ccccc3)[nH]c2=O)cc1 |
| -0.73 | i | O=C(O)C1C2C=CC(C2)C1C(=O)Nc1cccc(Cl)c1 (stereo not drawn) |
| 0.05 | i | Cc1ccc(C2C(C(=O)c3cc4ccccc4o3)=C(O)C(=O)N2CCN2CCOCC2)cc1 (stereo not drawn) |
| -0.11 | i | CCN(CC)C(=O)CSc1nnc(-c2cccnc2)n1CCc1ccccc1 |
| 3 | i | CC(Sc1nc2ccc(Br)cc2[nH]1)C(=O)O (stereo not drawn) |
| -1.4 | i | COc1ccc(OC)c(S(=O)(=O)NCc2ccc(N3CCN(C)CC3)cc2)c1 |
| 0.75 | i | CCCN(CCC)CCCNC(=O)CN1C(=O)CSc2ccc(S(=O)(=O)N3CCOCC3)cc21 |
| 0.03 | i | CCCOc1ccc(C2NC(=S)NC(C)=C2C(=O)c2ccccc2)cc1OC (stereo not drawn) |
| -0.08 | i | CC(Oc1ccc([N+](=O)[O-])cc1)C(=O)NCC1CCCO1 (stereo not drawn) |
| -2.3 | i | CCOc1ccc(C(=O)Oc2cc(C)[nH]c(=O)c2[N+](=O)[O-])cc1OCC |
| 0.01 | i | CCOCC(=O)Nc1cccc(-c2nc3cccnc3s2)c1C |
| 0.43 | i | COC(=O)CNC(=O)C(NC(=O)OCc1ccccc1)C(C)C (stereo not drawn) |
| 2.2 | i | O=C(OCc1c(Cl)cccc1Cl)c1cnccn1 |
| -0.5 | i | CC(=O)c1ccc(N=c2scc(C)n2C(C)C)cc1 |
| 0.08 | i | COC(=O)CSc1nnnn1-c1ccccc1 |
| 0.84 | i | CCOC(=O)c1c(-c2ccc(C)cc2)csc1NC(=O)/C(C#N)=C/c1ccc(O)c(OC)c1 |

Entries of single compounds, quoted from the list. Screens in order: KCNQ2 inh baseline | KCNQ2 inh
CC(Sc1nc2ccc(Br)cc2[nH]1)C(=O)O (stereo not drawn) across the screens: 3 | i
COc1ccccc1Cc1nc(-c2ccc(Br)o2)no1 across the screens: 0.05 | i
CC(Oc1ccc([N+](=O)[O-])cc1)C(=O)NCC1CCCO1 (stereo not drawn) across the screens: -0.08 | i
COc1ccc(C(=O)Nc2c(N)nc(SCC(=O)c3ccccc3)[nH]c2=O)cc1 across the screens: -1.5 | i

Further results
| KCNQ2 inh baseline | KCNQ2 inh | structure |
| --- | --- | --- |
| 1.4 | i | COc1ccccc1C(CNC(=O)c1ccc(NS(=O)(=O)c2ccc3c(c2)OCCO3)cc1)N(C)C (stereo not drawn) |
| -1.1 | i | O=C1CCCC2=C1C(c1ccc(O)c(O)c1)Nc1ccc3ccccc3c12 (stereo not drawn) |
| -2.3 | i | O=C1NC2(CCCc3ccccc32)C(=O)N1Cc1nnc(-c2ccccc2Br)o1 (stereo not drawn) |
| -0.26 | i | O=C(C1CC1)N1N=C(c2ccc(Br)cc2)CC1(O)C(F)(F)F (stereo not drawn) |
| -1 | i | O=C(c1cc2ccccc2oc1=O)N1CCSC1c1ccco1 (stereo not drawn) |
| 0.09 | i | COC(=O)c1ccsc1NC(=O)C1COc2ccccc2O1 (stereo not drawn) |
| 2.6 | i | CNC(=O)c1c(NC(=O)c2nc3ccccc3s2)sc2c1CCC2 |
| 1.6 | i | CC1(C)Oc2ccc(C(=O)N3CCOCC3)cc2N(CC(=O)Nc2ccccc2)C1=O |
| -0.09 | i | CCOc1ccc(S(=O)(=O)N2CCCCC2)cc1NC(=O)CN1C(=O)NC(C)(c2ccc(C)cc2)C1=O (stereo not drawn) |

Ordered by length of the SMILES (lowest first): some entries from above.
| KCNQ2 inh baseline | KCNQ2 inh | structure |
| --- | --- | --- |
| -1 | i | O=C(c1cc2ccccc2oc1=O)N1CCSC1c1ccco1 (stereo not drawn) |
| 2.6 | i | CNC(=O)c1c(NC(=O)c2nc3ccccc3s2)sc2c1CCC2 |
| -0.26 | i | O=C(C1CC1)N1N=C(c2ccc(Br)cc2)CC1(O)C(F)(F)F (stereo not drawn) |
| -1.1 | i | O=C1CCCC2=C1C(c1ccc(O)c(O)c1)Nc1ccc3ccccc3c12 (stereo not drawn) |
| 1.6 | i | CC1(C)Oc2ccc(C(=O)N3CCOCC3)cc2N(CC(=O)Nc2ccccc2)C1=O |
| 1.4 | i | COc1ccccc1C(CNC(=O)c1ccc(NS(=O)(=O)c2ccc3c(c2)OCCO3)cc1)N(C)C (stereo not drawn) |
